Compound activity deposited in PubChem by National Center for Advancing Translational Sciences (NCATS).
Bst PK mod – modulators of Bacillus stearothermophilus pyruvate kinase | partly purified Bacillus stearothermophilus pyruvate kinase, luminescence ATP production; ribose 5-phosphate activator present at AC10 | Potency, µM | 51,000 tested, 1.2% active; in the data active means potency below about 11 µM; inconclusive means mostly about 12 µM to 25 µM; inactive means weaker than that;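 the screen sought inhibitors and activators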;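 also: potency is read from the fitted curve at half-maximal effect; scaled between full activation by ribose 5 phosphate and full inhibition by luteolin; about four in five hits inhibit and the cells do not say which; series up to 57 µM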
TsaE inh – inhibitors of E. coli YjeE (TsaE) | AID 605 | Potency, µM | purified YjeE, fluorescence polarisation of a bound ADP probe | 71,000 tested, 0.05% active; active = well fitted falling curve; inconclusive = weaker or top-dose-only fall, or a rising curve; inactive = flat or poorly fitted curve;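 also: top concentration of the series not given in the record; excess ADP was the control for the full effect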
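Purified YjeE (10 uM) with BODIPY Texas Red-labeled ADP probe (2 uM); compounds pin-transferred, 15 min at room temperature. Binding inhibition read as decreased fluorescence polarization; ADP titration as control.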
An asterisk follows results filed as active; & = joins results of further samples. An excerpt (hit frequency here may not be typical).

`C[C@H]1CC[C@@H]2[C@@H](C)[C@H]3[C@H](C[C@H]4[C@@H]5CC=C6CC(O[C@@H]7O[C@H](CO)[C@H](O)[C@H](O[C@@H]8O[C@H](CO)[C@@H](O)[C@H](O)[C@H]8O)[C@H]7O[C@H]7O[C@@H](C)[C@H](O)[C@@H](O)[C@H]7O)CC[C@]6(C)[C@H]5CC[C@]34C)N2C1` (stereo partly drawn) gave TsaE inh inactive.
CCCc1cc2c(n1CCO)C(C)C1CN(C(=O)c3ccccc3)C(C)(C(=O)OC)C21 (stereo not drawn) was read as TsaE inh inactive.
`N[C@H](Cc1ccccc1)c1nn[nH]n1` gave TsaE inh inactive.
Nc1ccccc1O.O.O=C(O)[C@H]1[O][Sb][O][C@H]1C(=O)O was read as TsaE inh inactive.
`CN[C@@H](C)[C@H]1CC[C@@H](N)[C@@H](O[C@@H]2[C@@H](O)[C@@H](O[C@H]3OC[C@@](C)(O)[C@@H](NC)[C@@H]3O)[C@H](N)C[C@@H]2N)O1` (tested in a mixture with another compound) gave TsaE inh inactive.
For Cc1cc(OCC(=O)O)c2c3c(c(=O)oc2c1)CCCC3 the results were Bst PK mod >57 and TsaE inh inactive.
`O=NN1CCCCC1` gave TsaE inh inactive.
Screening O=c1c(C=NCCN2CCNCC2)c(O)n(C2CCCCC2)c(=O)n1C1CCCCC1 returned Bst PK mod >25.6.
O=C(Oc1ccccc1)N1CCC2(CCCN(C(c3ccccc3)c3ccccc3)C2)CC1 was read as TsaE inh inactive.
Screening CCCc1nc2ccccc2c(=O)n1-c1ccccc1OC returned Bst PK mod >25.6.
O=C1NC(=O)C(Cc2cccs2)C(=O)N1 was read as Bst PK mod >57 and TsaE inh inactive.
`Cc1ccc2c(c1N)C(=O)c1ccccc1C2=O` gave TsaE inh inactive.
CCS(=O)(=O)N1CCCC(C(=O)N2CCC3(CC2)OCCO3)C1 (stereo not drawn) was read as Bst PK mod >57 and TsaE inh inactive.
For CN(N=O)c1cc(O)ccc1O the results were TsaE inh 100µM*.
For C[C@@H](Cc1ccc2c(c1)OC(C(=O)O)(C(=O)O)O2)NC[C@H](O)c1cccc(Cl)c1 the results were TsaE inh inactive.
Screening CC(=O)N1CN2CN(C(C)=O)CC(C(=O)c3ccc(Br)cc3)(C2)C1 returned Bst PK mod >57 and TsaE inh inactive.
`Clc1cccc(Cl)c1` gave TsaE inh inactive.
COc1ccc(OC)c(C2=NOC(C(=O)N3CCC4(CC3)OCCO4)C2)c1 (stereo not drawn) was read as Bst PK mod >57 and TsaE inh inactive.
Screening C[N+](C)(C)CC#CCOC(=O)Nc1cccc(Cl)c1 returned TsaE inh inactive.
For NCC(CC(=O)O)c1ccc(Cl)cc1 (stereo not drawn) the results were Bst PK mod >57&>25.6 and TsaE inh inactive.
CC(C)=C[C@H]1[C@@H](C(=O)OCc2cc3c(cc2Cl)OCO3)C1(C)C was read as TsaE inh inactive.
For CCN(CC)CCCNC(=O)c1c(O)c2ccccc2n(Cc2ccccc2)c1=O the results were Bst PK mod >25.6.
For CCCCC#N the results were TsaE inh inactive.
For CCCCCCC(C)(C)c1ccc([C@@H]2C[C@H](O)CC[C@@H]2CCCO)c(O)c1 the results were TsaE inh inactive.
O=c1[nH]c(N2CCN(Cc3ccc4c(c3)OCO4)CC2)nc2c1CCC2 was read as Bst PK mod >57 and TsaE inh inactive.
Screening CCOC(=O)N1CCC(NC(=O)CCc2nc(C3=CCN(C)CC3)no2)CC1 returned Bst PK mod >57 and TsaE inh inactive.
For CC12CN3CC(C)(CN(C1)C3c1cccs1)C2O (stereo not drawn) the results were Bst PK mod >57 and TsaE inh inactive.
For CCN(CCCl)Cc1ccccc1Br the results were TsaE inh inactive.
C=CC(N)=O was read as TsaE inh inactive.
CCOC(=O)C1=C(C)OC(N)=C(C(=O)OCC)[C@@]12C(=O)N(CC(N)=O)c1ccccc12 was read as Bst PK mod >25.6.
For O=C1C2CCCN2C(c2ccncc2)N1c1ccc(Cl)c(Cl)c1 (stereo not drawn) the results were Bst PK mod >57 and TsaE inh inactive.
CN(C)c1ccc(N=Nc2ccccc2)cc1 was read as TsaE inh inactive.
Screening O=S(=O)(O)/C(=C\c1ccccc1)c1ccccc1 (tested in a mixture with another compound) returned TsaE inh inactive.
Screening CCCC1=C(C(=O)OCC)C2(C(=O)Nc3ccccc32)C(C#N)=C(N)O1 (stereo not drawn) returned TsaE inh inactive.
For COc1cc(CN2CCN(C(=O)COc3ccccc3)CC2)cc(OC)c1OC the results were TsaE inh inactive.
Screening COc1ccc(CCn2c(O)c(C=NCCCO)c(=O)[nH]c2=O)cc1OC returned Bst PK mod >57 and TsaE inh inactive.
Screening c1ccc2c(c1)CCCC2 returned TsaE inh inactive.
Screening C[C@@](Br)(C(=O)O)[C@H](Br)C(=O)O returned TsaE inh inactive.
CCN(CC)C(=O)N[C@@H]1C[C@H]2c3cccc4[nH]cc(c34)C[C@@H]2N(C)C1 was read as TsaE inh inactive.
For O=Cc1ccccc1 the results were TsaE inh inactive.
Oc1cc(Cl)ccc1Cl was read as TsaE inh inactive.
For CC12CCCCC1=NC(c1ccc(Br)cc1)N2O (stereo not drawn) the results were TsaE inh inactive.
O=C(NCC(c1cccnc1)N1CCN(c2ccccc2)CC1)Oc1ccccc1 (stereo not drawn) was read as Bst PK mod >57 and TsaE inh inactive.
`O=C(O)C(O)(c1ccc(-c2ccccc2)cc1)c1ccc(-c2ccccc2)cc1` gave TsaE inh inactive.
For CCOC(=O)c1c(C)n(CCN2CCN(C)CC2)c2ccc(OC)cc12 the results were Bst PK mod >57 and TsaE inh inactive.
Screening CCOC(=O)C1=C(N)Oc2cc(C)oc(=O)c2C12C(=O)N1c3c(cccc32)C(C)=CC1(C)C (stereo not drawn) returned Bst PK mod >57 and TsaE inh inactive.
Screening O=c1[nH]c(=O)n(Cc2ccco2)c(O)c1C=NCc1ccco1 returned Bst PK mod >57 and TsaE inh inactive.
For Nc1ccc(Cl)c(Cl)c1 the results were TsaE inh inactive.
For COc1ccccc1N=C1SCCCN1C the results were Bst PK mod >57 and TsaE inh inactive.
Screening CCCCn1c(O)c(C(CC)=NCCN2CCCCC2)c(=O)[nH]c1=O returned Bst PK mod >57 and TsaE inh inactive.

A run of entries taken from the entries so far, for reference:
For O=C1C2CCCN2C(c2ccncc2)N1c1ccc(Cl)c(Cl)c1 (stereo not drawn) the results were Bst PK mod >57 and TsaE inh inactive.
CN(C)c1ccc(N=Nc2ccccc2)cc1 was read as TsaE inh inactive.
Screening O=S(=O)(O)/C(=C\c1ccccc1)c1ccccc1 (tested in a mixture with another compound) returned TsaE inh inactive.
Screening CCCC1=C(C(=O)OCC)C2(C(=O)Nc3ccccc32)C(C#N)=C(N)O1 (stereo not drawn) returned TsaE inh inactive.
For COc1cc(CN2CCN(C(=O)COc3ccccc3)CC2)cc(OC)c1OC the results were TsaE inh inactive.
Screening COc1ccc(CCn2c(O)c(C=NCCCO)c(=O)[nH]c2=O)cc1OC returned Bst PK mod >57 and TsaE inh inactive.
Screening c1ccc2c(c1)CCCC2 returned TsaE inh inactive.
Screening C[C@@](Br)(C(=O)O)[C@H](Br)C(=O)O returned TsaE inh inactive.
CCN(CC)C(=O)N[C@@H]1C[C@H]2c3cccc4[nH]cc(c34)C[C@@H]2N(C)C1 was read as TsaE inh inactive.
For O=Cc1ccccc1 the results were TsaE inh inactive.
Oc1cc(Cl)ccc1Cl was read as TsaE inh inactive.
For CC12CCCCC1=NC(c1ccc(Br)cc1)N2O (stereo not drawn) the results were TsaE inh inactive.
O=C(NCC(c1cccnc1)N1CCN(c2ccccc2)CC1)Oc1ccccc1 (stereo not drawn) was read as Bst PK mod >57 and TsaE inh inactive.
`O=C(O)C(O)(c1ccc(-c2ccccc2)cc1)c1ccc(-c2ccccc2)cc1` gave TsaE inh inactive.
For CCOC(=O)c1c(C)n(CCN2CCN(C)CC2)c2ccc(OC)cc12 the results were Bst PK mod >57 and TsaE inh inactive.
Screening CCOC(=O)C1=C(N)Oc2cc(C)oc(=O)c2C12C(=O)N1c3c(cccc32)C(C)=CC1(C)C (stereo not drawn) returned Bst PK mod >57 and TsaE inh inactive.
Screening O=c1[nH]c(=O)n(Cc2ccco2)c(O)c1C=NCc1ccco1 returned Bst PK mod >57 and TsaE inh inactive.

The list goes on:
`CNC(=O)O/N=C/C(C)(C)SC` gave TsaE inh inactive.
Screening COc1ccc2c(c1)C13CCCC[C@@H]1C(C2)N(C)CC3 (stereo partly drawn) returned TsaE inh inactive.
`CC(C)N(CCC(C(N)=O)(c1ccccc1)c1ccccn1)C(C)C` (stereo not drawn) gave Bst PK mod >25.6.
`COc1ccccc1N1CCNCC1` gave TsaE inh inactive.
COc1cccc(N2C(=O)NC(=O)C3(Cc4cc(C)ccc4N(C)C3)C2=O)c1 (stereo not drawn) was read as Bst PK mod >57 and TsaE inh inactive.
Screening COc1ccc(Cc2nccc3cc(OC)c(OC)cc23)cc1OC returned Bst PK mod >25.6 and TsaE inh inactive.
CC(=O)N1C[C@@H]2C[C@H](C1)c1cccc(=O)n1C2 was read as TsaE inh inactive.
Screening COc1ccccc1CN1CCN(C(=O)COc2ccccc2)CC1 returned Bst PK mod >57 and TsaE inh inactive.
Screening CN1CCN(c2ccc3ccccc3n2)CC1 returned TsaE inh inactive.
Screening CCCCCCn1c(O)c(C=NCCN2CCCCC2)c(=O)[nH]c1=O returned Bst PK mod >25.6.
For CC1(C)N(O)C(c2ccc(C(=O)O)cc2)=[N+]([O-])C1(C)C the results were TsaE inh inactive.
Screening O=[N+]([O-])c1cc(O)c(O)c([N+](=O)[O-])c1 returned TsaE inh inactive.
Screening N#CC1=C(N)Oc2c(c(=O)oc3ccccc23)C1c1ccc(OC(=O)N2CCOCC2)cc1 (stereo not drawn) returned Bst PK mod >57 and TsaE inh inactive.
CC(N=Cc1c(O)[nH]c(=O)[nH]c1=O)c1ccccc1 (stereo not drawn) was read as TsaE inh inactive.
`CCC(=NCCN1CCCCC1)c1c(O)n(C)c(=O)n(C)c1=O` gave Bst PK mod >25.6.
For N[C@H](CP(=O)(O)O)C(=O)O the results were TsaE inh inactive.
Screening CCOC(=O)C1C(=O)N(C)C2(C)CC1c1cc(OC)ccc1O2 (stereo not drawn) returned Bst PK mod >57 and TsaE inh inactive.
`C=CC(C)=O` gave TsaE inh inactive.
O=C(O)C(=O)Cc1ccc2c(c1)OCO2 was read as TsaE inh inactive.
`COCCOC(=O)C1=C(N)OC(C)=C(C(=O)OC)C12C(=O)Nc1ccccc12` (stereo not drawn) gave TsaE inh inactive.
Cn1cc(C(=O)c2ccccc2)c2ccccc21 was read as TsaE inh inactive.
For CN1CC=C2C(C#N)=C(N)C(C#N)(C#N)C(c3ccncc3)C2C1 (stereo not drawn) the results were Bst PK mod >25.6.
Screening O=C(C1CCCO1)N1CCC2(CC1)OCCO2 (stereo not drawn) returned Bst PK mod >57 and TsaE inh inactive.
`[N-]=[N+]=NCC(=O)c1c[nH]c(=O)[nH]c1=O` gave TsaE inh inactive.
For Cc1nn(Cc2ccccc2Cl)c(Cl)c1C(=O)OCC(=O)NCc1ccco1 the results were Bst PK mod >57 and TsaE inh inactive.
O=c1c2ccccc2[nH]c(=S)n1-c1ccc2c(c1)OCO2 was read as Bst PK mod >57 and TsaE inh inactive.
`CCC(=NCc1ccc2c(c1)OCO2)c1c(O)n(C2CCCCC2)c(=O)[nH]c1=O` gave Bst PK mod >57 and TsaE inh inactive.
`O=c1cccc2n1CC1CC2CN(Cc2cccc(Cl)c2Cl)C1` (stereo not drawn) gave TsaE inh inactive.
Screening Cc1c2ccncc2c(C)c2c1[nH]c1ccccc12 returned Bst PK mod inconclusive and TsaE inh inactive.
`O=[N+]([O-])CCO` gave TsaE inh inactive.
Screening CN1CCN(C(=O)COc2ccc(C(C)(C)C)cc2Br)CC1 returned Bst PK mod >57 and TsaE inh inactive.
For CCCCn1c(O)c(C(C)=Nc2ccc(C(=O)O)cc2)c(=O)[nH]c1=O the results were Bst PK mod >57 and TsaE inh inactive.
`Oc1cc(Cl)c(Cl)c(Cl)c1Cl` gave TsaE inh inactive.
Screening CCCCc1nc(N2CCNCC2)c(C#N)c2c1CSC(C)(C)C2 returned Bst PK mod >25.6.
CC(C)(O)C(=O)Nc1ccc([N+](=O)[O-])c(C(F)(F)F)c1 was read as TsaE inh inactive.
For CN(C)CCN=Cc1c(O)n(-c2cccc(C(F)(F)F)c2)c(=O)[nH]c1=O the results were Bst PK mod >57 and TsaE inh inactive.
`CP(=O)(O)CCCN` gave Bst PK mod >57 and TsaE inh inactive.
`Cc1cc(N2C(=O)C3CCCN3C2c2cccc(Cl)c2)no1` (stereo not drawn) gave Bst PK mod >57 and TsaE inh inactive.
Screening O=C1N(CN2CCOCC2)c2ccccc2C1(O)c1c[nH]c2ccccc12 (stereo not drawn) returned Bst PK mod >57 and TsaE inh inactive.
Screening Cc1ccc2c(c1)C1CN(C)CCC1N2C(=O)Cn1nnc(-c2ccccc2F)n1 (stereo not drawn) returned TsaE inh inactive.
Screening Cn1nc(-c2ccc(OCC(=O)N3CCN(Cc4ccccc4)CC3)cc2)c2ccccc2c1=O returned Bst PK mod >57 and TsaE inh inactive.
For COc1ccc2[nH]c(C)c(CCN3CCC(=O)C(C)C3C)c2c1 (stereo not drawn) the results were TsaE inh inactive.
Screening Cc1nc2ncnn2c(C)c1CCC(=O)N1CCC2(CC1)OCCO2 returned Bst PK mod >57 and TsaE inh inactive.
For CN1C[C@H](CNC(=O)OCc2ccccc2)C[C@@H]2c3cccc4c3c(cn4C)C[C@H]21 the results were Bst PK mod >25.6.
For Nc1ccccc1C(=O)OC1CSC1 the results were TsaE inh inactive.
For CCCN(CC#CCO)CCC the results were Bst PK mod >25.6.
